Bioassay records as filed in PubChem BioAssay.
Vaccinia inh: blocks a specific stage of Vaccinia orthopoxvirus infection. activity change (mCherry), % (no concentration beside the values). Vaccinia-infected cells, mCherry/Venus stage reporter fluorescence; stronger effect = lower value; some inactives read as strong as hits. 0.01% of 89,000 active;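 active = mCherry past -33% and 40 or more points under the early reporter, replicates agreeing; inconclusive = past -33% without that gap or agreement; tested in A549 cells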;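 also: scaled between vehicle wells and reference inhibitor wells; 23 nL library stock went into each well; one replicate is shown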
Vaccinia inh Venus: also measured in Vaccinia inh; calls as there; activity change (Venus), %; measured here: Venus reporter, other viral stage;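 negative = less Venus signal; first of two replicates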
Numbers without * were called inactive; ? = inconclusive; . = no result given; & = joins results of further samples.

SMILES	Vaccinia inh	Vaccinia inh Venus
C[C@H](CO)N1C[C@H](C)[C@@H](CN(C)S(=O)(=O)c2cn(C)cn2)OCc2ccccc2-c2c(n(C)c3ccccc23)C1=O	-28	-31
Cc1ccc(S(=O)(=O)Nc2ccc3c(c2)C(=O)N([C@@H](C)CO)C[C@@H](C)[C@H](CN(C)Cc2ccc(C(F)(F)F)cc2)OCCCC[C@@H](C)O3)cc1	?	.
C#CCNC(=O)C1=C[C@@H](C(C)(C)C)C[C@@H](OCc2ccc(CO)cc2)O1	4	5
C[C@H](CO)N1C[C@H](C)[C@@H](CN(C)C(=O)Nc2cccc3ccccc23)Oc2ccc(NC(=O)Nc3ccc(F)cc3)cc2C1=O	16	15
C[C@H](CO)N1C[C@H](C)[C@H](CN(C)CC2CCCCC2)OCCCC[C@H](C)Oc2ccc(NS(C)(=O)=O)cc2C1=O	-5	0
C[C@H]1CCCCO[C@@H](CN(C)Cc2ccc(C(F)(F)F)cc2)[C@@H](C)CN([C@@H](C)CO)C(=O)c2cc(NC(=O)Nc3ccc(F)cc3)ccc2O1	-25	-26
C[C@@H]1CCCCO[C@H](CN(C)CC2CC2)[C@H](C)CN([C@H](C)CO)C(=O)c2cc(NC(=O)c3ccccc3)ccc2O1	-18	-13
C[C@H](CO)N1C[C@H](C)[C@@H](CN(C)S(=O)(=O)c2cccs2)Oc2ccc(NS(=O)(=O)c3ccc(Cl)cc3)cc2C1=O	-9	-14
N#C[C@H]1[C@@H](c2ccc(-c3ccccc3F)cc2)[C@@H](CO)N1C(=O)c1ccccn1	12	-4
Cc1ccc(S(=O)(=O)N[C@H]2CC[C@H](CCn3cc(-c4cccc(F)c4)nn3)O[C@@H]2CO)cc1	?	.
C[C@@H]1CN([C@@H](C)CO)C(=O)c2cc(NC(=O)CCCN(C)C)ccc2O[C@@H]1CN(C)Cc1ccc(-c2ccccc2)cc1	-33	-23
C[C@H](CO)N1C[C@H](C)[C@@H](CN(C)C(=O)Nc2ccccc2)Oc2ccc(NC(=O)Cc3cn(C)c4ccccc34)cc2C1=O	5	7
CCCNC(=O)C[C@@H]1CC[C@@H]2[C@H](COc3ccc(NC(=O)Cc4ccccc4)cc3C(=O)N2C)O1	15	11
COc1cccc(NC(=O)N2C[C@@H](O)COC[C@@H]3O[C@H](CC(=O)N(C)C)CC[C@H]32)c1	0	4
C[C@H](CO)N1C[C@H](C)[C@H](CN(C)Cc2ccc(Cl)c(Cl)c2)Oc2ccc(NC(=O)Nc3ccccc3)cc2CC1=O	?	.
C[C@@H]1CN([C@H](C)CO)C(=O)c2c(c3ccccc3n2C)-c2ccccc2CO[C@@H]1CN(C)C(=O)[C@H](C)c1ccccc1	?	.
CC(C)C#Cc1ccc2c(c1)O[C@@H](CN(C)C(=O)c1cccc(F)c1)[C@H](C)CN([C@H](C)CO)S2(=O)=O	?	.
CN1c2ccc(-c3ccc(F)cc3)cc2[C@H]2[C@H](CCN2C(=O)Cc2ccccn2)[C@H]1CO	-31	-22
CNC[C@@H]1Oc2c(N)cccc2C(=O)N([C@H](C)CO)C[C@@H]1C	-10	8
CC(C)CC#Cc1cnc2c(c1)C(=O)N([C@@H](C)CO)C[C@H](C)[C@@H](CN(C)C(=O)c1cccc(F)c1)O2	?	.
C[C@@H]1CN([C@H](C)CO)S(=O)(=O)c2ccc(C3=CCCC3)cc2O[C@@H]1CN(C)C(=O)Nc1ccc2c(c1)OCO2	?	.
C[C@@H]1CCCCO[C@@H](CN(C)C(=O)Nc2ccc3c(c2)OCO3)[C@@H](C)CN([C@H](C)CO)C(=O)c2cc(NC(=O)CCCCCC(=O)Nc3ccccc3N)ccc2O1	13	4
CCCNC(=O)C[C@@H]1C[C@@H]2c3cc(NC(=O)NC4CCCCC4)ccc3O[C@@H]2[C@@H](CO)O1	3	-2
C[C@H]1CN([C@@H](C)CO)C(=O)c2cc(-c3cccnc3)cnc2O[C@H]1CN(C)C(=O)Nc1ccc(C(F)(F)F)cc1	-2	-5
C[C@@H]1CN([C@@H](C)CO)C(=O)c2cc(NS(C)(=O)=O)ccc2O[C@@H](C)CCCCO[C@@H]1CN(C)C(=O)CCC(F)(F)F	9	10
C[C@H]1CN([C@@H](C)CO)C(=O)Cc2cc(NS(=O)(=O)c3ccc(Cl)cc3)ccc2O[C@H]1CN(C)C(=O)NC1CCCCC1	1	4
CC(=O)N(C)C[C@H]1Oc2cc(-c3cccc(C#N)c3)ccc2S(=O)(=O)N([C@H](C)CO)C[C@H]1C	20	9
C[C@@H]1CN([C@H](C)CO)C(=O)CCCn2cc(nn2)CO[C@@H]1CN(C)C(=O)Oc1cccc2ccccc12	7	10
CC(C)C#Cc1cnc2c(c1)C(=O)N([C@H](C)CO)C[C@@H](C)[C@@H](CN(C)C(=O)c1cccnc1)O2	9	6
O=C(NCC(F)(F)F)[C@H]1[C@H](CO)[C@H]2Cn3c(cccc3=O)[C@@H]1N2CC1CCOCC1	11	11
C[C@H]1CN([C@@H](C)CO)S(=O)(=O)c2ccc(C#CC3CCCCC3)cc2O[C@H]1CN(C)Cc1cccnc1	?	.
C[C@@H]1CCCCO[C@@H](CN(C)C(=O)CCCN(C)C)[C@@H](C)CN([C@H](C)CO)C(=O)c2cc(NC(=O)C3CCCCC3)ccc2O1	3	0
C[C@@H]1CCCCO[C@H](CN(C)C(=O)NC2CCCCC2)[C@H](C)CN([C@H](C)CO)C(=O)c2cc(N(C)C)ccc2O1	-7	9
COc1ccc(S(=O)(=O)Nc2ccc3c(c2)CC(=O)N([C@@H](C)CO)C[C@@H](C)[C@@H](CN(C)C(=O)NC2CCCCC2)O3)cc1	3	0
C[C@@H]1CCCCO[C@H](CN(C)C(=O)c2ccncc2)[C@@H](C)CN([C@H](C)CO)C(=O)c2cc(NC(=O)Cc3ccccc3)ccc2O1	25	16
Cc1ccc(S(=O)(=O)Nc2ccc3c(c2)CC(=O)N([C@@H](C)CO)C[C@@H](C)[C@@H](CN(C)Cc2ccc(Cl)c(Cl)c2)O3)cc1	?	.
C[C@@H]1CCCCO[C@H](CN(C)C(=O)C2CCCCC2)[C@H](C)CN([C@@H](C)CO)C(=O)c2cc(NC(=O)Cc3ccccc3)ccc2O1	?	.
Cc1ccc(-c2cnc3c(c2)C(=O)N([C@H](C)CO)C[C@H](C)[C@H](CN(C)C(=O)c2cccnc2)O3)cc1	6	1
C[C@H]1CN([C@@H](C)CO)C(=O)Cc2cc(NC(=O)Nc3ccccc3)ccc2O[C@@H]1CN(C)S(=O)(=O)c1ccc(F)cc1	-4	-3
CNC[C@@H]1Oc2ncc(C#CC3CCCC3)cc2C(=O)N([C@@H](C)CO)C[C@@H]1C	-7	-7
CC(=O)N(C)C[C@@H]1Oc2ncc(-c3ccc(F)cc3)cc2C(=O)N([C@H](C)CO)C[C@@H]1C	18	25
CNC[C@H]1Oc2ccc(NC(=O)C3CC3)cc2CC(=O)N([C@@H](C)CO)C[C@H]1C	15	15
O=C(C[C@H]1CC[C@@H](NC(=O)Nc2ccccc2)[C@H](CO)O1)NCc1ccccn1	4	7
COc1ccc2c3c([nH]c2c1)[C@@H](CO)N(C(=O)Nc1ccc(F)cc1)CC31CN(CC2CCOCC2)C1	11	11
Cn1cnc(S(=O)(=O)N2CCCCN3[C@@H](CO)[C@@H](c4ccc(C#CC5CCCC5)cc4)[C@@H]3C2)c1	?	.
COc1ccc(S(=O)(=O)N(C)C[C@H]2Oc3ccc(NS(=O)(=O)c4cccs4)cc3CC(=O)N([C@@H](C)CO)C[C@@H]2C)cc1	-16	1
COC(=O)C[C@H]1C=C[C@@H](NC(=O)c2ccccc2)[C@H](CO)O1	2	-1
COc1ccccc1-c1cnc2c(c1)C(=O)N([C@H](C)CO)C[C@H](C)[C@@H](CN(C)Cc1ccncc1)O2	-1	-7
Cc1cccc(S(=O)(=O)N2C[C@H]3[C@@H](c4ccccc42)[C@@H](CO)N3Cc2cccnc2)c1	14	14
CN(C)CC(=O)N1CC2(C1)[C@@H](c1ccccc1)[C@@H](CO)N2Cc1cc(F)ccc1F	-6	2
C[C@@H]1CCCCO[C@H](CN(C)C(=O)Nc2ccc(C(F)(F)F)cc2)[C@H](C)CN([C@@H](C)CO)C(=O)c2cc(NC(=O)CCC(F)(F)F)ccc2O1	-4	-11
CC(C)NC(=O)N(C)C[C@H]1Oc2cc(C3=CCCC3)ccc2S(=O)(=O)N([C@@H](C)CO)C[C@H]1C	-3	4
C[C@H](CO)N1C[C@H](C)[C@@H](CN(C)S(=O)(=O)c2cn(C)cn2)OCc2cnnn2CCCC1=O	10	16
C[C@H]1CN([C@@H](C)CO)C(=O)c2cc(NC(=O)c3ccncc3)ccc2O[C@@H]1CN(C)Cc1ccc(Oc2ccccc2)cc1	?	.
CC(C)C(=O)Nc1ccc2c(c1)C(=O)N(C)[C@@H]1CC[C@@H](CC(=O)O)O[C@H]1CO2	7	10
C[C@@H]1CCCCO[C@@H](CN(C)C(=O)CCCN(C)C)[C@H](C)CN([C@@H](C)CO)C(=O)c2cc(NS(C)(=O)=O)ccc2O1	3	5
CO[C@H]1CN(C)C(=O)c2cc(NC(C)=O)ccc2OC[C@@H](C)N(C(=O)C2CC2)C[C@@H]1C	9	12
CC(C)NC(=O)Nc1cccc2c1O[C@H](CN(C)Cc1ccc(Cl)c(Cl)c1)[C@@H](C)CN([C@@H](C)CO)C2=O	?	.
CC=Cc1ccc2n(c1=O)C[C@H]1[C@H](CO)[C@@H](C(=O)N(C)C)N(CCC(F)(F)F)[C@@H]21 (mixture of isomers)	-5	-2
C[C@@H]1CN([C@H](C)CO)C(=O)c2cccc(NC(=O)C3CCCCC3)c2O[C@H]1CN(C)Cc1ccc(C(F)(F)F)cc1	?	.
(more compounds)
SMILES	Vaccinia inh	Vaccinia inh Venus
C[C@H](CO)N1C[C@H](C)[C@@H](CN(C)CC2CC2)OCCCC[C@H](C)Oc2ccc(NS(=O)(=O)c3ccc(Cl)cc3)cc2C1=O	-21	-12
CC(C)CC#Cc1cnc2c(c1)C(=O)N([C@@H](C)CO)C[C@@H](C)[C@H](CN(C)C(=O)C1CCCCC1)O2	-24	-21
C[C@@H]1CN([C@H](C)CO)C(=O)Cc2cc(NC(=O)Nc3ccc(C(F)(F)F)cc3)ccc2O[C@H]1CN(C)Cc1ccccc1	?	.
C[C@H]1CN([C@@H](C)CO)C(=O)c2cc(NC(=O)c3ccncc3)ccc2O[C@@H]1CN(C)Cc1ccc2c(c1)OCO2	5	5
C[C@@H]1CN([C@@H](C)CO)C(=O)c2cc(NC(=O)Cc3ccccc3)ccc2O[C@@H]1CN(C)C(=O)Nc1cccc2ccccc12	-32	-12
CCCC(=O)Nc1ccc2c(c1)OC[C@H](C)N(CCC(F)(F)F)C[C@@H](C)[C@@H](OC)CN(C)C2=O	8	-9
C=CCOC(=O)[C@@H]1[C@H]2C(=O)O[C@H](c3ccccc3)[C@H](c3ccccc3)N2[C@H](c2ccc(OCCOC(=O)[C@@H]3C[C@@H]4C(=O)N[C@@H](CC(C)C)C(=O)N4[C@@H]3c3ccc(O)cc3)cc2)[C@@]12C(=O)Nc1ccc(I)cc12	12	15
O=C([C@H]1[C@H](CO)[C@H]2Cn3c(ccc(C4=CCCC4)c3=O)[C@@H]1N2Cc1nccs1)N1CCCCC1	5	10
CNC[C@H]1Oc2ncc(C#CC3CCCC3)cc2C(=O)N([C@@H](C)CO)C[C@H]1C	-23	-22
C[C@@H]1CCCCO[C@@H](CN(C)C(=O)NC2CCCCC2)[C@@H](C)CN([C@@H](C)CO)C(=O)c2cc(NC(=O)Nc3ccc(C(F)(F)F)cc3)ccc2O1	7	7
O=C(Cc1ccncc1)N1CCCCN2[C@H](CO)[C@H](c3ccc(-c4ccncc4)cc3)[C@@H]2C1	37	15
C[C@@H]1CCCCO[C@@H](CN(C)C(=O)Nc2ccc3c(c2)OCO3)[C@@H](C)CN([C@H](C)CO)C(=O)c2cc(N(C)C)ccc2O1	5&6	8&-11
COc1cccc(-c2ccc3c(c2)[C@H]2[C@H](CCN2C(=O)c2ccc(F)cc2)[C@H](CO)N3)c1	?	.
CC(C)NC(=O)NCC[C@@H]1CC[C@@H](NC(=O)Nc2ccccc2)[C@@H](CO)O1	3	-1
O=C(C[C@H]1CC[C@@H](NC(=O)Nc2ccc(F)cc2)[C@@H](CO)O1)NCc1cccc(F)c1	6	5
Cc1ccc(S(=O)(=O)Nc2ccc3c(c2)C(=O)N([C@H](C)CO)C[C@H](C)[C@H](CN(C)Cc2ccc4c(c2)OCO4)O3)cc1	-19	-21
O=C(NC[C@H]1[C@H](c2ccccc2)[C@H](CO)N1CC1CCCC1)c1ccccc1	1	7

An excerpt from above in order of molar mass, lowest first:
SMILES	Vaccinia inh	Vaccinia inh Venus
CC(C)NC(=O)NCC[C@@H]1CC[C@@H](NC(=O)Nc2ccccc2)[C@@H](CO)O1	3	-1
O=C(NC[C@H]1[C@H](c2ccccc2)[C@H](CO)N1CC1CCCC1)c1ccccc1	1	7
O=C(C[C@H]1CC[C@@H](NC(=O)Nc2ccc(F)cc2)[C@@H](CO)O1)NCc1cccc(F)c1	6	5
O=C(Cc1ccncc1)N1CCCCN2[C@H](CO)[C@H](c3ccc(-c4ccncc4)cc3)[C@@H]2C1	37	15
O=C([C@H]1[C@H](CO)[C@H]2Cn3c(ccc(C4=CCCC4)c3=O)[C@@H]1N2Cc1nccs1)N1CCCCC1	5	10
C[C@@H]1CN([C@@H](C)CO)C(=O)c2cc(NC(=O)Cc3ccccc3)ccc2O[C@@H]1CN(C)C(=O)Nc1cccc2ccccc12	-32	-12
Cc1ccc(S(=O)(=O)Nc2ccc3c(c2)C(=O)N([C@H](C)CO)C[C@H](C)[C@H](CN(C)Cc2ccc4c(c2)OCO4)O3)cc1	-19	-21
C[C@@H]1CN([C@H](C)CO)C(=O)Cc2cc(NC(=O)Nc3ccc(C(F)(F)F)cc3)ccc2O[C@H]1CN(C)Cc1ccccc1	?	.
C=CCOC(=O)[C@@H]1[C@H]2C(=O)O[C@H](c3ccccc3)[C@H](c3ccccc3)N2[C@H](c2ccc(OCCOC(=O)[C@@H]3C[C@@H]4C(=O)N[C@@H](CC(C)C)C(=O)N4[C@@H]3c3ccc(O)cc3)cc2)[C@@]12C(=O)Nc1ccc(I)cc12	12	15

An excerpt; rates above refer to the full screens.
